High-throughput results: PubChem, National Center for Advancing Translational Sciences (NCATS)
D2 potentiator: Beta-Arrestin HTS for Positive Allosteric Modulators of the Human D2 Dopamine Receptor: Potentiators; 0.23% of 360,000 active; D(2) dopamine receptor (Homo sapiens), P14416; potentiation, % (no concentration beside the values); AID 624464, 2012; DiscoveRx D2 beta-arrestin cells, luminescence, 90 min; 100% = 57 uM dopamine signal; active = potentiation of 50% or more; inconclusive = 30% to 50%; inactive = 30% or less;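 further: compound concentration not given in the record; tested on top of an EC20 dose of dopamine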
Target sequence (P14416 whole entry, looked up): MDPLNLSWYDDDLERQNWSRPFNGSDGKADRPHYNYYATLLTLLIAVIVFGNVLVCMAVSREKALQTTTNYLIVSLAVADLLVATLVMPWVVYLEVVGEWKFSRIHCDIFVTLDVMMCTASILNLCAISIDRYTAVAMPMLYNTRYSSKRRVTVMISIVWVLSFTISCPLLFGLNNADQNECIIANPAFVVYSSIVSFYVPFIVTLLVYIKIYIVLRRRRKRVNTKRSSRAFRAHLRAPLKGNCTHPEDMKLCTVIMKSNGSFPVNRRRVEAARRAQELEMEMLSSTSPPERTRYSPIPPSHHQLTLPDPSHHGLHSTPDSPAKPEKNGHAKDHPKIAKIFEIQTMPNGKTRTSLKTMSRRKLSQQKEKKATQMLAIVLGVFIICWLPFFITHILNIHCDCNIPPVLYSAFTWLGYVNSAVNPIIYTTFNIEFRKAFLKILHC
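PathHunter D2 cells, attached overnight at 37 deg C, received compound in DMSO plus dopamine at EC20 (50 nM final) for 90 min at 37 deg C. Beta-arrestin recruitment was read as luminescence after 1 h with detection reagent at ambient temperature.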
PINK1 modulator: A Quantitative High throughput Screen to Identify Chemical Modulators of PINK1 Expression; PINK1 immunofluorescence, high-content cytometry, 24 h; Potency, µM (titrated, usually from 76.6 µM), without a hit: top-dose activation (PINK1 increase), most hits filed as activators; 0.2% of 410,000 active; AID 624263, 2012; active = well fitted activation curve with a large enough effect; inconclusive = small, poorly fitted or top-dose-only effect; inactive = flat fitted curve, though single readings scatter; cell line not stated here;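 further: potency means the concentration at half of the fitted maximal effect; % of control where 0% means no effect; nearly all actives have a fitted effect of over 65% in size; a mitochondrial uncoupler was the plate control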
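A stable cell line was treated with compounds at 5 concentrations for 24 hours, with CCCP as control. PINK1 levels and mitochondrial localization were measured by immunofluorescence with mitochondrial, cell and nuclear markers after fixation, read by laser-scanning cytometry.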
TRPML1 ag: qHTS for Agonists of the Human Mucolipin Transient Receptor Potential 1 (TRPML1) | Mucolipin-1 (Homo sapiens), Q9GZU1 | TRPML1-expressing cells, Ca2+ dye fluorescence, FDSS; host cell line not named in the record; reference of the full effect not given here | activation, % (no concentration beside the values) | 0.12% of 410,000 active | AID 624414, 2012; in the data active = activation above about 50%; inconclusive = about 30% to 50%; inactive = below about 30%; further: 0% is about no effect; the text of the record puts the active cut at 80%
Target sequence (Q9GZU1 whole entry, looked up): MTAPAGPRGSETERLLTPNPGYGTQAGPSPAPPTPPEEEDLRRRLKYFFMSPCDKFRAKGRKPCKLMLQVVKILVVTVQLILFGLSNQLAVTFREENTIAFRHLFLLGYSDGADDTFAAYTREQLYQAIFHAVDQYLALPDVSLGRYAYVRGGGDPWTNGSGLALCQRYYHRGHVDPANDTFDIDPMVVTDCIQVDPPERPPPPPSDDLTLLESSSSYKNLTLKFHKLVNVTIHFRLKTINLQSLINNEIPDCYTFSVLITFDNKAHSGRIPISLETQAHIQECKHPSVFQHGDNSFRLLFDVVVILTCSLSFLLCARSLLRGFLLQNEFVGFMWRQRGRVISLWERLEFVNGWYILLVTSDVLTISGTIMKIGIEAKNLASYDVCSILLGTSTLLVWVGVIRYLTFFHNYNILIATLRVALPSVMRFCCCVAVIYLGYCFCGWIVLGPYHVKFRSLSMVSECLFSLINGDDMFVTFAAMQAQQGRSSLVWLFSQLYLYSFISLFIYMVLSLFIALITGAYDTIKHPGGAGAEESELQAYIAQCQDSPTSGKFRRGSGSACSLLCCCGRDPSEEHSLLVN
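In this qHTS format, compounds were pin-transferred onto Ca8-dye-loaded TRPML1-DL cells induced with Tet overnight, and intracellular Ca2+ fluorescence was recorded kinetically for 110 s after a 10 s baseline. A subsequent 4uM final 54-4 (EC80) addition followed by a second 110 s read served as the antagonist phase.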
Six1-Eya2 blk: qHTS Assay for Inhibitors of the Six1/Eya2 Interaction | AID 651725, 2012 | 0.56% of 360,000 active | activity change, % (no concentration beside the values) | Homeobox protein SIX1 (Homo sapiens) + Protein phosphatase EYA2 (Homo sapiens), … | AlphaScreen GST-Six1/His-Eya2 binding, biochemical; hits give low values; control for the full effect not named in the record; in the data active = activity change below about -65%; inconclusive = about -30% to -65%; inactive = above about -30%; further: on the % scale 0 is the no-effect control and ±100 the full control effect; compound concentration not given in the record
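Compounds are tested against tagged Six1 and Eya2 proteins bridged by glutathione donor and nickel acceptor beads; after a one-hour incubation at 37 °C without light, AlphaScreen emission is recorded.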
D2 ag: Beta-Arrestin HTS for Positive Allosteric Modulators of the Human D2 Dopamine Receptor: Agonists | D(2) dopamine receptor (Homo sapiens), P14416 | DiscoveRx PathHunter D2 beta-arrestin, luminescence, 90 min; 100% = 57 uM dopamine signal | activation, % (no concentration beside the values) | 0.084% of 360,000 active; in the data active = activation above about 40%; inconclusive = about 15% to 40%; inactive = below about 15%; further: compound concentration not given in the record; the text of the record calls up to 30% inactive
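DiscoveRx PathHunter D2 beta-arrestin cells (2,100/well) attached overnight, then compound-stimulated 90 min at 37 C in HBSS/10 mM HEPES/0.1% Tween-20 buffer; beta-galactosidase complementation read by luminescence after 1 h at ambient temperature. Dopamine 57 uM final (EC100) as control.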
CtBP-E1A inh: qHTS Assay for Inhibitors of the CtBP/E1A Interaction. CtBP / adenovirus E1A interaction (AlphaScreen). AlphaScreen GST-E1A/His-CtBP binding, 1536-well; hits give low values; control for the full effect not named in the record. activity change, % (concentration not given with the values). 0.49% of 340,000 active; in the data active means activity change below about -65%; inconclusive means about -30% to -65%; inactive means above about -30%; further: on the % scale 0 is the no-effect control and ±100 the full control effect
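Homogeneous bead-based format: GST-tagged E1A captured on glutathione donor beads, His-tagged CtBP on nickel acceptor beads; compounds precede bead addition by 2 h at 37 °C.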
An asterisk follows results filed as active; ? = inconclusive; · = no result given; & = joins results of further samples; [ ] = another dose, or the depositor's remark.

Compound,D2 potentiator,PINK1 modulator,TRPML1 ag,Six1-Eya2 blk,D2 ag,CtBP-E1A inh
COc1ccc(C(=O)COC(=O)CN2C(=O)C3C4C=CC(C4)C3C2=O)cc1 (configuration not stated),-3.9,1.0%,0.0,-7.7,-1.8,2.3
CN(CC(=O)NCc1ccccc1Cl)S(=O)(=O)c1ccc2c(c1)n(C)c(=O)c(=O)n2C,-5.2,0.1%,-0.8,8.0,-1.8,2.3
COc1ccc(OC)c(NC(=O)CNC(=O)c2ccc([N+](=O)[O-])cc2)c1,-7.5,0.8%,-0.5,-4.9,3.0,·
O=C(/C=C/c1cc([N+](=O)[O-])ccc1OC(F)F)Nc1cccc(OC(F)F)c1,-8.0,7.7%,0.3,11.4,6.7,-4.4
Cn1cnnc1Sc1ccc(C(=O)OCC(=O)NCC(F)(F)F)cc1[N+](=O)[O-],2.5,-0.1%,0.6,3.8,6.4,3.8
C=CCn1c(SCC(=O)Nc2nnc(C)s2)nnc1-c1cccnc1,0.0,2.6%,0.2,1.0,-1.7,-22.2
CCOc1ccc(CNC(=O)CCCn2nc(C)c3c(C)n(-c4ccc(C)cc4)nc3c2=O)cc1,-25.5,0.9%&0.2%,-0.8&1.4,-4.4,-5.3,1.1
CCOc1ccc(/C=N/n2c(C3CCCCC3)n[nH]c2=S)cc1,-7.1,4.6%,·,3.3,0.1,-0.5
O=C(CNC(=O)c1ccc(S(=O)(=O)N2CCCC2)cc1)N/N=C/c1c(Cl)cccc1Cl,-13.8,4.0%,-0.4,-1.0,-4.2,-1.5
CCOCCCNC(=O)C1CCN(S(=O)(=O)c2ccc(C)cc2)CC1,-1.3,20.9%[38.3 µM],0.6,5.7,-1.3,11.5
COc1ccccc1OCCn1c(=S)[nH]c2ccccc21,-3.7,-0.4%,0.8,-11.1,-0.4,-0.6
S=c1nc(NCc2ccc3c(c2)OCO3)c2ccccc2[nH]1,-1.8,10.9%,·,-2.0,2.9,-1.3
N#Cc1cnc2sc3ccccc3n2c1=N,-9.0,-0.3%,0.5,-1.9,0.2,-1.7
CCOc1ccc(CCNC(=O)CCS(=O)(=O)c2ccc(OC)cc2)cc1OCC,2.0,-0.6%,-1.0,-4.9,1.5,·
O=C(CNC(=O)c1cccs1)NCC(=O)OCc1ccc(Cl)cc1,-15.3,·,0.2,3.9,-1.8,2.6
Cn1c(=O)[nH]c(=O)c2c1nc(N/N=C/C(Br)=C/c1ccccc1)n2CCO,-15.7,1.1%,0.5,1.3,-3.5,-6.2

Exported as labelled records: part of the list above
S=c1nc(NCc2ccc3c(c2)OCO3)c2ccccc2[nH]1
- D2 potentiator = -1.8
- PINK1 modulator = 10.9%
- TRPML1 ag = ·
- Six1-Eya2 blk = -2.0
- D2 ag = 2.9
- CtBP-E1A inh = -1.3

N#Cc1cnc2sc3ccccc3n2c1=N
- D2 potentiator = -9.0
- PINK1 modulator = -0.3%
- TRPML1 ag = 0.5
- Six1-Eya2 blk = -1.9
- D2 ag = 0.2
- CtBP-E1A inh = -1.7

Other records.
Compound,D2 potentiator,PINK1 modulator,TRPML1 ag,Six1-Eya2 blk,D2 ag,CtBP-E1A inh
Nn1c(SCC(=O)NC2CCS(=O)(=O)C2)nnc1-c1ccco1 (configuration not stated),-0.2,-1.3%,-0.1,3.8,5.2,6.7
O=C(COc1ccccc1)Nc1ncc2c(n1)CCCC2=O,-2.7,-1.4%,0.9,-6.8,-1.0,-1.3
CC(C)(C)OC(=O)C[C@@H]1C/C=C\C[C@@H](CC(=O)N(CCO)Cc2ccccc2)C(=O)NCCOC1=O,-10.6,-1.3%,-0.4,-0.2,-2.7,-6.8
O=C(CC1C(=O)NCCN1C/C=C/c1ccccc1)NCCc1ccncc1 (configuration not stated),-3.4,-1.1%,-0.8,1.0,-0.4,-4.3
Nc1c(N(Cc2ccco2)C(=O)COc2ccc(Cl)cc2)c(=O)[nH]c(=O)n1Cc1ccccc1,-14.4,19.0%,1.5,2.6,-0.7,1.5
Cc1cccc(NC(=O)c2ccc(-n3ccnc3)nc2)c1,-9.4,4.4%,0.2,-2.2,-0.1,4.6
Cc1ccc(C(=O)OCC(=O)NCC2COc3ccccc3O2)cc1 (configuration not stated),-6.9,0.1%,1.1,10.2,-3.9,·
CCN(CC)CCNC(=O)c1ccc(NC2=NC3CS(=O)(=O)CC3S2)cc1 (configuration not stated),-6.2,1.5%,0.5,3.1,-1.9,7.5
CCOC(=O)CSc1nc(=O)n2ccc(C)cc2n1,-5.0,-1.0%,0.3,0.0,-5.3,-6.8
COc1ccc(N2CCN(C(=O)CN(C)S(=O)(=O)c3ccc4c(c3)c(=O)n(C)c(=O)n4C)CC2)cc1,-6.3,0.4%,-0.4,-27.3,0.7,21.7
COc1ccc(S(=O)(=O)N2CCC(C(=O)Oc3cccc(C)c3)CC2)cc1OC,-12.7,-1.0%,3.5,-6.1,-5.3,-10.5
Cc1csc(SCC(=O)N(C)c2c(N)n(Cc3ccccc3)c(=O)[nH]c2=O)n1,-2.7,1.9%,0.3,4.8,-3.0,-9.7
COc1cc2sc(-c3ccccc3OC)c(-c3ccc(OCCN4CCOCC4)cc3)c2cc1OC,·,0.1%,0.0,?,?,-24.7
Cc1ccc(C)c(OCc2ccc(C(=O)NN)o2)c1,6.5,-0.1%,0.5,6.3,11.1,·
O=c1c2cccnc2[nH]c(=S)n1CCCN1CCN(c2ccccc2F)CC1,-5.3,0.6%,0.5,10.0,?,-0.9
CCOC(=O)c1sc(N)nc1C(F)(F)F,-4.0,0.0%,-1.1,3.2,1.2,3.6

Part of the list above with just CtBP-E1A inh and PINK1 modulator:
Molecule	CtBP-E1A inh	PINK1 modulator
COc1ccc(N2CCN(C(=O)CN(C)S(=O)(=O)c3ccc4c(c3)c(=O)n(C)c(=O)n4C)CC2)cc1	21.7	0.4%
O=c1c2cccnc2[nH]c(=S)n1CCCN1CCN(c2ccccc2F)CC1	-0.9	0.6%
COc1cc2sc(-c3ccccc3OC)c(-c3ccc(OCCN4CCOCC4)cc3)c2cc1OC	-24.7	0.1%
COc1ccc(S(=O)(=O)N2CCC(C(=O)Oc3cccc(C)c3)CC2)cc1OC	-10.5	-1.0%
CCOC(=O)c1sc(N)nc1C(F)(F)F	3.6	0.0%

(listing goes on)
Compound,D2 potentiator,PINK1 modulator,TRPML1 ag,Six1-Eya2 blk,D2 ag,CtBP-E1A inh
CC(=O)N(O)c1ccc(C=Cc2ccccc2)cc1,-4.8,-1.4%,-0.2,-7.9,3.6,-10.8
CC1(C)Cc2c(sc(NC(=O)c3ccco3)c2C#N)CO1,-4.4,-1.2%,-0.7,2.0,-4.6,-1.2
COC(=O)c1c(NC(=O)CC2Nc3ccccc3NC2=O)sc(C)c1C (configuration not stated),2.5,?,-0.2,-2.0,-2.2,10.4
CCCCn1c(N)c(N(CC(C)C)C(=O)c2cc3ccccc3cc2OC)c(=O)[nH]c1=O,-3.2,0.9%,-0.1,9.8,-5.9,5.4
C/C(=N\Nc1nc(C)cc(C)n1)c1ccc(N2CCOCC2)cc1,-4.5,1.6%,0.1,2.8,-7.9,-0.7
O=C(NNC(=O)c1ccc(-c2ccc([N+](=O)[O-])cc2)o1)c1ccncc1,-1.6,-0.4%,0.7,-6.9,-3.0,-20.0
C/C(=N\NC(N)=O)c1c(F)cccc1F,10.4,-2.1%,-0.6,6.9,-0.5,6.1
O=C(CC1C[C@H](C(=O)N2CCCCC2)[C@@]2(CCc3ccccc3)c3[nH]c4ccccc4c3CCN2C1=O)NCCc1ccccn1 (some centres not stated),-7.8,4.4%,2.3,4.5,-0.1,1.8
COc1cccc(OCC(=O)NNC(=O)c2ccc3ccccc3c2O)c1,-28.9,-0.6%,-0.1,-3.7,8.2,0.0
Cc1ccc(SC2=C(N(C)C)C(=O)c3ccccc3C2=O)cc1,-11.6,10.1%,4.3,-84.2*,-3.5,-86.2*
C=CCOc1ccc(CNC(C)(C)CO)cc1OCC,-16.8,0.5%,-0.7,4.5,-4.8,0.8
CCOC(=O)CNC(=O)CSc1nc(-c2ccc(OC)cc2)ns1,1.9,-0.7%,-1.3,-10.9,-7.0,-14.5
C=CCN(C(=O)CCC(=O)Nc1cc(C)on1)C(C(=O)NC(C)(C)C)c1cccc(OC)c1OC (configuration not stated),10.8,-0.4%,-0.7,6.9,-4.1,4.8
Cn1c(C(=O)NCCOc2ccccc2Cl)cc(=O)n(C)c1=O,-4.1,-0.2%,0.6,-3.3,-1.2,-5.0
COc1ccccc1CN(C)C(=O)c1cc(S(=O)(=O)N2CCCCCC2)ccc1OC,-7.0,1.5%,-1.3,-0.5,-0.4,-0.7
Cc1c(C)n(CCc2ccccc2)c2ncnc(NCCCN(C)C)c12,-18.5,4.7%,1.3,-26.6,-3.7,?
CCc1ccc(C(C#N)=CC=Cc2ccccc2)cc1,-13.7,16.1%,-0.4,111.7,-4.1,0.0
Cc1ccc(Cc2c(-c3ccccc3)nc3c4ccccc4ccn23)cc1,·,2.2%,-0.5,-5.0,·,-0.5
Clc1ccc2nc(N3CCCCC3)[nH]c2c1,-19.3,?,0.8,2.3,-2.3,0.6
COc1ccc(C(=O)CSc2nnc(CCc3ccccc3)n2-c2ccccc2)cc1,-14.7,-2.7%[38.3 µM],4.1,-2.5,-1.4,-6.1
CCC(CC)C(=O)Nc1cccc(C(=O)NCc2ccco2)c1,-2.7,?,0.1,-3.6,0.3,7.0
Nn1c(SCC(=O)NC(=O)NCc2ccco2)nnc1-c1ccc(OC(F)F)cc1,-0.3,0.2%,-0.1,-29.0,-1.6,-2.1
CCc1ccc(N2CCN(C(=O)c3ccc(OC)c(OC)c3)CC2)cc1,-3.8,1.5%,-0.1,-7.0,-0.3,-0.2
O=C(/C=C/c1cccc([N+](=O)[O-])c1)Nc1ccc(NC(=O)c2cccs2)cc1,-9.6,6.8%,-0.6,7.5,-2.1,5.1
CCCOc1ccc(/C=C/C(=O)N2CCN(c3ccccn3)CC2)cc1,-10.6,0.4%,0.2,-20.8,1.1,0.0
CCCCn1c(NC(C)CC)nc2c1c(=O)[nH]c(=O)n2C (configuration not stated),0.6,1.3%,-0.4,-1.0,-2.5,-0.5
O=c1c2ccccc2nc2n1CCCN2,-5.7,0.5%,-0.4,16.2,3.8,·

Hits appear at their usual frequency (roughly 1.3% active in at least one column).
